# Measles inh: inhibitors of measles virus growth in infected cells | z-score (concentration not given with the values) | infected Vero cells, GFP fluorescence, 64 h; stronger effect = lower value | AID 745 | 33,000 tested, 0.1% active;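 active = z-score under -3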;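 also: score is relative to mean and SD of the compound wells of a plate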
# Active calls of the source: *.
Measles inh	canonical_smiles
-0.95	O=C(O)C1C(c2ccccc2)C(C(=O)Oc2cccc3ccccc23)C1c1ccccc1 (configuration not stated)
1.9	CN(CC(=O)O)S(=O)(=O)c1ccc2c(c1)n(C)c(=O)c(=O)n2C
0.68	O=C(CN(C1CCCCC1)S(=O)(=O)c1ccc(Cl)cc1)N1CCCCCC1
-0.06	CC1(C)Cc2c(sc(NC(=O)COc3ccccc3)c2C#N)C(C)(C)N1
0.97	Cc1cc(C(F)(F)F)n2nc(-c3ccccc3)cc2n1
-0.25	CCOC(=O)c1cnc2cc(Cl)c(OC)cc2c1Nc1ccccc1F
-0.47	Cc1nc(-c2ccc([N+](=O)[O-])cc2)c(C(=O)Nc2ccc(-c3ccccc3)cc2)s1
-0.42	COc1ccc(C2C(C(=O)Nc3ccc(Oc4ccccc4)cc3)CCC(=O)N2c2ccc3c(c2)OCO3)cc1 (configuration not stated)
-0.85	COc1ccc(C2C3C(=O)N(c4cccc5ccccc45)C(=O)C3N3CCCN23)cc1 (configuration not stated)
-0.05	CC(C(=O)NCc1ccccc1)N(c1ccccc1)S(C)(=O)=O (configuration not stated)
-0.55	Cc1ccc(C(=O)Nc2ccc(Cl)cc2)cc1S(=O)(=O)N1CCOCC1
-1.2	Cc1ccc(-c2nc3ccccc3s2)cc1NC(=O)c1ccccc1C
-0.93	O=C(c1ccc(-c2ccc(Cl)cc2)o1)N1CCN(c2ccc([N+](=O)[O-])cc2Cl)CC1
-0.29	CC(=O)c1c(C)[nH]c(C(=O)Nc2ccc(OC(F)(F)F)cc2)c1C
2.7	COc1ccc2nc(NC(=O)Cc3ccc(Cl)cc3)sc2c1
0.08	COc1ccc(C)cc1NC(=O)CN1CCN(C2c3ccccc3-c3ccccc32)CC1
-1.6	COc1cc(CNc2ccc3[nH]c(=O)[nH]c3c2)cc(Br)c1OCc1cccs1
-0.21	CCN(CC)c1nc(C)nc2sc(C(=O)Nc3cc(OC)ccc3OC)c(C)c12
-0.52	CCn1c(N)c(C(=O)NCc2ccccc2)sc1=S
0.03	COc1ccc(-n2nc(C(=O)NCC(=O)NCc3cccc(F)c3)c3ccccc3c2=O)cc1Cl
0.56	Cc1nn(CC(=O)Nc2ccc(C(=O)N(C)C)cc2)c(=O)c2ccccc12
1.1	CC(C)CC(C(=O)Nc1nc2ccccc2s1)N1C(=O)c2ccccc2C1=O (configuration not stated)
1.4	CCc1nnc(NS(=O)(=O)c2ccc(NC(=O)c3ccccc3)cc2)s1
1.2	COCCOC(=O)C1=C(C)NC2=C(C(=O)CCC2)C1c1ccccc1Br (configuration not stated)
1.9	O=C(NCCN1CCOCC1)c1cc2nc(-c3cccs3)cc(C(F)(F)F)n2n1
-0.39	O=C(CCS(=O)(=O)c1cc(Br)cc2c1N(C(=O)C1CC1)CC2)NCc1ccc(F)cc1
5	O=C(c1ccc2c(c1)[nH]c(=S)n1c3ccccc3nc21)N1CCN(C(=O)c2ccco2)CC1
-0.35	Cc1ccc2nc(C)cc(Nc3ccc(C)c(C)c3)c2c1
-0.33	O=C(Cn1c(=O)n(Cc2ccccc2)c(=O)c2cc(Cl)ccc21)c1cccc(C(F)(F)F)c1
-0.64	COc1ccc(-c2nc3cc(C)ccc3o2)cc1N=Cc1cccc([N+](=O)[O-])c1O
0.62	O=C(Nc1ccccc1C(F)(F)F)C(Cc1ccccc1)N1C(=O)c2ccccc2C1=O (configuration not stated)
0.93	O=C(NC1CCCCC1)C(c1cc2c(cc1[N+](=O)[O-])OCO2)N1CCCC1 (configuration not stated)
0.84	O=C(CN1C(=O)c2ccccc2C1=O)Nc1cc(C(=O)O)cc(C(=O)O)c1
-0.09	Cc1nc(Nc2cc(F)ccc2C)c2c3c(sc2n1)CCCC3
0.2	O=C1NC(c2ccccc2F)C(C(=O)c2ccc(Cl)cc2)C(O)(C(F)(F)F)N1 (configuration not stated)
0.24	COc1cccc(NC(=O)CCS(=O)(=O)c2ccc3c(c2)CCN3C(C)=O)c1
1	O=C(c1ccco1)N1CCN(Cc2nc3ccc([N+](=O)[O-])cc3c(=O)n2-c2ccccc2F)CC1
-0.35	O=C(Nc1cccc([N+](=O)[O-])c1)c1csc2c1CCCC2
-0.46	O=C(c1ccc(Cn2c(=S)[nH]c3ccc(Br)cc3c2=O)cc1)N1CC=C(c2ccccc2)CC1
-0.87	COc1ccccc1-c1nc(-c2ccc([N+](=O)[O-])cc2)no1
0.43	O=c1oc2ccccc2cc1C1=Nn2c(nnc2-c2ccc3c(c2)OCO3)SC1
1.1	COc1ccccc1C(=O)Nc1cc(-c2nc3cc(Cl)ccc3o2)ccc1C
-0.56	COCCNC(=O)c1ccc(CSCc2cccc(C)c2)o1
-0.46	CCOC(=O)C1=C(C)Nc2ncnn2C1c1ccc(C)o1 (configuration not stated)
-0.24	CC12CCC(C(=O)O)(CC1=O)C2(C)C (configuration not stated)
0.52	COC(=O)C1=C(C)N(C)C(=O)NC1c1ccccc1[N+](=O)[O-] (configuration not stated)
0.46	O=c1c2ccccc2n(Cc2cccc([N+](=O)[O-])c2)c(=O)n1CCc1ccccc1
0.12	COc1ccc(OCC(=O)N2c3ccccc3C(C)(c3ccccc3)CC2(C)C)cc1 (configuration not stated)
0.06	CCc1ccccc1NC(=O)c1cc(-c2cccc(Cl)c2)on1
-0.49	CC(=O)N1CCN(C(=S)c2ccc(-c3cccc([N+](=O)[O-])c3)o2)CC1

# Continued:
Measles inh	canonical_smiles
0.82	COc1ccc(C(=O)Nc2c3c(nn2-c2ccc(F)cc2)CSC3)cc1OC
-0.94	O=C(c1ncc[nH]1)c1ccccc1C(=O)N1CCOCC1
0.07	O=C(Nc1cccc(-c2nc3ncccc3o2)c1)c1ccc(Br)o1
-0.55	COc1cc(OC)cc(C(=O)N2CCc3ccccc3C2CNC(=O)Nc2cccc3ccccc23)c1 (configuration not stated)
0.28	CC(=O)c1c(C(C)=O)c(C)n(-c2ccc(C)c(N)c2)c1C
-0.38	CCn1c(N)c(C(=O)NCCOC)sc1=S
1.1	CN1C(=O)C2ON(c3ccccc3)C(c3ccccc3)C2C1=O (configuration not stated)
0.61	COc1ccc(-c2nc(SCc3cccc(C)c3)c3c(=O)n(C)c(=O)n(C)c3n2)cc1
1.7	Cc1cc(SCC(=O)Nc2ccc(F)cc2)nc2ccccc12
-0.18	Cc1ccccc1C(=O)Nc1cccc(N=Cc2ccc([N+](=O)[O-])cc2)c1
1.1	CC1=C(C(=O)OCc2ccccc2)C(c2ccccc2Br)C2=C(CC(C)(C)CC2=O)N1 (configuration not stated)
0.71	CCC(=O)N1c2ccccc2-c2nnc(SC)nc2OC1c1ccc(Br)s1 (configuration not stated)
-0.55	CCS(=O)(=O)N1CCC(C(=O)NCCOC)CC1
-0.13	O=C(/C=C/Nc1cccc(O)c1)c1ccc(Br)cc1
1.5	Cc1ccc(NC2=NC(C)(C)N=C(N)N2)c(C)c1
1.3	O=C(c1ccc2c(c1)N(Cc1cccc(F)c1)C(=O)c1ccccc1S2)N1CCCC1
-0.94	Fc1ccc(CNc2nc(-c3cccs3)cc(C(F)(F)F)n2)cc1
-0.26	O=C(CCC1Nc2c3ccccc3nc(=S)n2C1=O)NCc1ccccc1 (configuration not stated)
-0.48	c1ccc(C2=NN3C(C2)c2ccccc2OC32CCCC2)cc1 (configuration not stated)
1.8	Cc1ccc(OCc2ccc(Cl)cc2)c(C(C)(C)C)c1
-0.3	O=C(Cn1cnc2ccc(Br)cc2c1=O)OCc1ccccc1
-1.5	COc1ccccc1N1CCN(S(=O)(=O)c2c(C)sc3ncn(CC(=O)Nc4ccc(C(C)C)cc4)c(=O)c23)CC1
-0.58	O=C(CCNC(=O)c1ccc(Br)o1)NC1CCCC1
-0.47	Cc1ccc(C)c(N2CCN(C(=O)c3cccn4c(=O)c5ccc(Cl)cc5nc34)CC2)c1
-0.4	CCOc1ccc2nc(NC(=O)c3ccc([N+](=O)[O-])cc3Cl)sc2c1

# Laid out differently: 6 of the compounds above
smiles | Measles inh
CC1=C(C(=O)OCc2ccccc2)C(c2ccccc2Br)C2=C(CC(C)(C)CC2=O)N1 (configuration not stated) | 1.1
CC(=O)c1c(C(C)=O)c(C)n(-c2ccc(C)c(N)c2)c1C | 0.28
Cc1ccc(NC2=NC(C)(C)N=C(N)N2)c(C)c1 | 1.5
COc1ccc(-c2nc(SCc3cccc(C)c3)c3c(=O)n(C)c(=O)n(C)c3n2)cc1 | 0.61
O=C(c1ncc[nH]1)c1ccccc1C(=O)N1CCOCC1 | -0.94
CCn1c(N)c(C(=O)NCCOC)sc1=S | -0.38

# Additional results
Measles inh	canonical_smiles
0.25	O=C1c2cc([N+](=O)[O-])cc3cc([N+](=O)[O-])cc(c23)C(=O)N1c1cccc(O)c1
-1.4	CN(CP(=O)(O)CN(C)S(C)(=O)=O)S(C)(=O)=O
-0.51	O=C(NCCCn1ccnc1)c1cc(-c2cccs2)on1
-0.48	O=C(NCCN1CCCCCC1)C1CCCN(S(=O)(=O)c2cccc3nsnc23)C1 (configuration not stated)
-0.14	NCCc1c(-c2ccccc2)n(-c2ccccc2)c2ccccc12
0.29	Cc1cc(N=Cc2cc(I)cc(C)c2O)ccc1NC(=O)c1ccccc1
-0.53	O=C(NCc1ccc(Cl)cc1)C1CCCN(S(=O)(=O)c2cccc3nsnc23)C1 (configuration not stated)
-0.87	CCN(CC)S(=O)(=O)c1ccc(C(=O)Nc2nnc(-c3ccc(C)cc3)s2)cc1
-0.63	CC1(C)CC(=O)C2=C(C1)N=C1c3ccccc3C(=O)C1C2c1ccc(Br)cc1 (configuration not stated)
-0.1	CCS(=O)(=O)N1CCC(C(=O)N2CC(C)CC(C)C2)CC1 (configuration not stated)
0.27	CCOC(=O)CCN(Cc1cccs1)S(=O)(=O)c1ccc(Cl)cc1
-0.32	COc1ccc(Cl)cc1S(=O)(=O)N1CCN(CC(=O)Nc2ccc3c(c2)OCO3)CC1
1	C=CCNC(=O)C(Cc1ccccc1)C(=O)OCC (configuration not stated)
-0.15	O=C1c2nccnc2C(=O)N1c1cccc2ccccc12
1.6	COc1ccc(S(=O)(=O)N(CC(=O)NC2CC3CCC2C3)c2ccc(Cl)cc2)cc1 (configuration not stated)
-2.1	CCOc1cc2c(cc1OCC)C1C(C(=O)N3CCN(c4cc(C)ccc4C)CC3)c3ccccc3C(=O)N1CC2 (configuration not stated)
-0.37	CCC(C)(C(=O)NC1CCCCC1)N(C(=O)c1ccc2c(c1)OCO2)c1ccccc1 (configuration not stated)
0.29	CCOC(=O)C1CCN(C(=O)c2cccc3c2C(=O)N(c2ccc(OC)cc2)C3)CC1
2.1	COCCCNC(=O)c1cc(Nc2ccccc2OC)nc2ccccc12
-0.7	CCCOc1ccc(-c2nc(OCC)c3ccccc3n2)cc1
-0.39	Cc1cc2cc(CCNC(=O)c3ccc(C(C)(C)C)cc3)c(=O)[nH]c2cc1C
0.53	Cc1cccc(-n2nc3c(c2NC(=O)c2cc4ccccc4oc2=O)CSC3)c1C
-0.48	CCOc1ccc(/C(O)=C2\C(=O)C(=O)N(Cc3cccnc3)C2c2ccc(F)cc2)cc1C (configuration not stated)
-0.77	O=C(O)c1ccccc1C(=O)c1ccccc1
0.24	Cn1cc(C(=O)NC2CCCCCC2)c2c3ccccc3n(C)c2c1=O
0.41	Cn1cc(C(=O)N2CCc3ccccc32)c(=O)c2cc(S(=O)(=O)N3CCCC3)ccc21
-0.89	O=C(NC(Cc1c[nH]c2ccccc12)C(=O)O)c1ccccc1 (configuration not stated)
-0.37	O=C(Nc1ccc(S(=O)(=O)N2CCCCC2c2cccnc2)cc1)C1CCCCC1 (configuration not stated)
-0.07	CCN(CC)c1ccc(C2C(C(=O)OCc3ccccc3)=C(C)NC3=C2C(=O)CC(C)(C)C3)cc1 (configuration not stated)
1.2	CCCCNC(=O)CSc1nc(NC2CCCCC2)c2ccccc2n1
1	O=C(COc1ccccc1)NCCCN1CCOCC1
-0.28	CCOc1ccc(S(=O)(=O)n2cnc3cc(C)c(C)cc32)cc1
-1	Cc1cc(C)c2c(-n3cccc3)c(C(=O)O)sc2n1
-1.4	CCOC(=O)C1=C(C)NC(C)=C(C(=O)OC)C1c1ccc(Cl)cc1 (configuration not stated)
0.93	C=CCn1c(SCc2ccc(Cl)cc2)nc2cc(C(=O)NCC3CCCO3)ccc2c1=O (configuration not stated)
0.2	CN(Cc1ccco1)C(=O)c1ccc(CNS(=O)(=O)c2ccc(F)cc2)cc1
-0.52	O=C(c1ccc2sc(=S)[nH]c2c1)N1CCCC1
-0.51	CCOC(=O)CNC(=O)Cn1cnc2c1c(=O)n(C)c(=O)n2C
-0.06	O=C(Nc1ccc(S(=O)(=O)Nc2ncccn2)cc1)C(Cc1ccccc1)N1C(=O)C2CCCCC2C1=O (configuration not stated)
-0.21	CC1=C(C(=O)Nc2cccc(C(F)(F)F)c2)C(c2ccc(C)cc2)C2=C(CCCC2=O)N1 (configuration not stated)
-0.59	CCOC(=O)c1cc2c(=O)n3ccccc3nc2n(C2CCCCC2)c1=NC(=O)c1cccc([N+](=O)[O-])c1C
0	Cc1sc(NC(=O)C2c3ccccc3Oc3ccccc32)c(C(=O)OC(C)C)c1C
0.33	Cc1nnc2nc(-c3ccccc3F)[nH]n12
1.4	Cc1ccc(NC(=O)C2c3ccccc3Oc3ccccc32)cc1C
0.82	O=C(O)CCCn1c(-c2cccc([N+](=O)[O-])c2)nc(=S)c2c1CCCC2
0.34	Cc1ccccc1NC(=O)CC(C(=O)O)N(C)C (configuration not stated)
-0.83	COCCN1C(=O)c2ccccc2C(C(=O)Nc2ccc(C)cc2Br)C1c1c[nH]c2ccccc12 (configuration not stated)
-1.2	CCOc1ccc(OCC)c(NC(=O)C2(S(=O)(=O)c3ccc(Cl)cc3)CC2)c1

# Arranged by count of non-hydrogen atoms (descending): part of the list above
Measles inh	canonical_smiles
-0.55	COc1cc(OC)cc(C(=O)N2CCc3ccccc3C2CNC(=O)Nc2cccc3ccccc23)c1 (configuration not stated)
-0.07	CCN(CC)c1ccc(C2C(C(=O)OCc3ccccc3)=C(C)NC3=C2C(=O)CC(C)(C)C3)cc1 (configuration not stated)
-0.48	CCOc1ccc(/C(O)=C2\C(=O)C(=O)N(Cc3cccnc3)C2c2ccc(F)cc2)cc1C (configuration not stated)
1.1	COc1ccccc1C(=O)Nc1cc(-c2nc3cc(Cl)ccc3o2)ccc1C
-0.3	O=C(Cn1cnc2ccc(Br)cc2c1=O)OCc1ccccc1
-0.87	COc1ccccc1-c1nc(-c2ccc([N+](=O)[O-])cc2)no1

# Only part of the results is shown; the hit share may differ from the screen's.
